TDP1 cell CPT – qHTS for Inhibitors of human tyrosyl-DNA phosphodiesterase 1 (TDP1): qHTS in cells in presence of CPT; chicken DT40 Tdp1-/-;hTDP1 cells + 20 nM CPT, ATP luminescence, 48 h; Potency, µM (highest dose often 46.2 µM), for inactives: at the highest dose activity change, negative = growth inhibition, most hits filed as inhibitors; 420,000 tested, 12% active; further: nearly all actives have a fitted effect of over 55% in size
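Chicken DT40 Tdp1-/- cells complemented with human TDP1, 400 cells/well, exposed to compounds plus 20 nM camptothecin for at least 48 h at 37 C; viability read as ATP content by CellTiter-Glo luminescence.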
GCN5L2 inh – qHTS Assay for Inhibitors of GCN5L2. 390,000 tested, 0.21% active. GCN5L2 HAT assay, ThioGlo1 CoA-SH fluorescence. Potency, µM (series often up to 58.9 µM), without a hit: at the top dose activity change, negative = inhibition, hits mostly inhibitors. Histone acetyltransferase KAT2A (Homo sapiens), Q92830
Target sequence (Q92830 whole entry, looked up): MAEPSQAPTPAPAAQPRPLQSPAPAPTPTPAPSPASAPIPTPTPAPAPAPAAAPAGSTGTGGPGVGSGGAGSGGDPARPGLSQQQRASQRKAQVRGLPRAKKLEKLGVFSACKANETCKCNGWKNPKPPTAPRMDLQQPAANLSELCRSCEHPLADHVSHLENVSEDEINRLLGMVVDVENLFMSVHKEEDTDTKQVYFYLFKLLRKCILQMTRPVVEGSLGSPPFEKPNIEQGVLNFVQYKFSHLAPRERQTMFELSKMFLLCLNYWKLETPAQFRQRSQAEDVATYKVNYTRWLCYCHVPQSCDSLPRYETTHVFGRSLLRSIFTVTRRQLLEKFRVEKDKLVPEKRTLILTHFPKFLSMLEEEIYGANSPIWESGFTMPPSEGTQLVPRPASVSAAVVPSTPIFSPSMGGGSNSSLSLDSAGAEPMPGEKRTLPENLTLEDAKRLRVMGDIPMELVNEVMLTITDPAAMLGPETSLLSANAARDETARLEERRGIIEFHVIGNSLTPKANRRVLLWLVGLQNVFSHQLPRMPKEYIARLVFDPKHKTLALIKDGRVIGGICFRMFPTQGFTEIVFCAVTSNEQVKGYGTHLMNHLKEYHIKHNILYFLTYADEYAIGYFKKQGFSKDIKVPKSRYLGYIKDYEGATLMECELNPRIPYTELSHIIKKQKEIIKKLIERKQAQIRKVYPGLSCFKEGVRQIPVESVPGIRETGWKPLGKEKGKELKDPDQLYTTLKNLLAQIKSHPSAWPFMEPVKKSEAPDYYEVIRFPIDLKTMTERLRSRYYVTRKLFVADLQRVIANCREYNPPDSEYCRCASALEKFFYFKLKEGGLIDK
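Free CoA generated was detected with ThioGlo1 (50uM) fluorescence at Ex340nm/Em540nm, read immediately and after 20 min at room temperature. Enzyme, 20 nM in HEPES pH 7.5 buffer, saw compounds 15 min before adding 75uM H3(1-25) peptide and 70uM acetyl-CoA.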
An asterisk follows results filed as active; ? = inconclusive; . = not tested or not shown; & = joins results of further samples; [ ] = dose if it differs, or a comment. The call rests on the fitted dose curve; in most records, active means well fitted curve in the direction sought with a large enough effect; inconclusive means small, poorly fitted or top-dose-only effect, or another doubt; inactive means no such curve, though single readings can be large; an effect the other way counts as inactive or inconclusive. On the % scale 0 is the no-effect control and ±100 the full control effect; potency means the concentration at half of the fitted maximal effect. These rows are one share of the data; most or all hits stand in other tables.

Screens in order: GCN5L2 inh, TDP1 cell CPT
- C=Cc1ccc(C2=CC(=O)C[C@H](c3ccc(OC)cc3)C2)cc1
→ -1%, -17%
- Cc1cccc(Nc2nc(N)nc(CSc3nccn3C)n2)c1
→ 15%, 1%
- COc1ccc(C(=O)CCc2ccccc2O)c(OC)c1
→ 11%, 6%
- CN(C)c1ccc(CNc2ccccn2)cc1
→ 2%, -23%
- O=C(COCc1cc(-c2cccs2)on1)Nc1ccc(OC(F)(F)F)cc1
→ -18%, -18%
- COc1ccc(S(=O)(=O)NCCC(C)C)cc1C
→ -3%, -7%
- CCn1c(C(O)c2cc(OC)ccc2OC)nc2ccccc21 (stereo unspecified)
→ -8%, 12%
- COc1ccc(-c2nnc(NC(=O)C(C)C)o2)cc1
→ 2%, 3%
- Cc1cccc(N2CCN(C(=O)Cn3c(=O)c4cccn4c4ccc(F)cc43)CC2)c1C
→ 0%, 21µM*
- Cc1cccc(NC(=O)COC(=O)c2cccs2)c1C
→ -8%, 1%
- CCCOc1ccc(N2C(=O)CC(N(CCOC34CC5CC(CC(C5)C3)C4)C(C)=O)C2=O)cc1 (stereo unspecified)
→ -14%, -19%
- Cc1ccc2c(CN3CCC(C)CC3)cc(=O)oc2c1C
→ 8%, ?
- Cc1ccc(/C=C/c2ccc(=O)n(Cc3ccc(F)cc3)n2)cc1
→ -9%, ?
- O=C(CCc1ccccc1Cl)N1CCN(S(=O)(=O)c2ccccc2)CC1
→ -6%, ?
- CC(=O)Nc1ccc(Nc2ncc([N+](=O)[O-])c(Nc3ccc(NC(C)=O)cc3)n2)cc1
→ 57%[activator], ?

An excerpt from above in order of heavy-atom count, high to low:
Screens in order: GCN5L2 inh, TDP1 cell CPT
- Cc1ccc(/C=C/c2ccc(=O)n(Cc3ccc(F)cc3)n2)cc1
→ -9%, ?
- COc1ccc(S(=O)(=O)NCCC(C)C)cc1C
→ -3%, -7%
- CN(C)c1ccc(CNc2ccccn2)cc1
→ 2%, -23%

Additional entries
Screens in order: GCN5L2 inh, TDP1 cell CPT
- COC1CCN(C(=O)C2CCC(=O)N(C3CCCCCC3)C2)CC1 (stereo unspecified)
→ 0%, -7%
- CCCCOC(=O)CSCC(=O)Nc1cc(C)on1
→ -1%, 6%
- Cc1ccc(C(=O)N/C(=C\c2ccccc2)C(=O)NCc2ccncc2)cc1
→ -7%, 3%
- COc1ccc(NC(=O)c2cnc3sccn3c2=O)cc1
→ -12%, -4%
- O=[N+]([O-])c1cccc(-c2cn3ccccc3n2)c1
→ 0%, ?
- Cc1ccccc1NC(=O)c1ccc(F)c(S(=O)(=O)N2CCCCC2)c1
→ -6%, -20%
- CNC(=S)Nc1ccccc1-c1ccccc1
→ 6%, -18%
- Clc1ccc2c(NCc3cccs3)ncnc2c1
→ -3%, 13µM*
- O=C(COC(=O)c1cc(=O)[nH]c2ccccc12)NC(=O)c1ccccc1
→ -2%, -2%
- COCc1ccc(CN2CCc3c([nH]c4ccccc34)C2CC(C)C)o1 (stereo unspecified)
→ -11%, ?
- COc1ccc(CCN2C(=O)CC(N3CCN(C/C=C/c4ccccc4)CC3)C2=O)cc1OC (stereo unspecified)
→ -1%, ?
- CCCN1CCC(NC(=S)Nc2cccc(Cl)c2Cl)CC1
→ -8%, 18µM*
- Cc1ccc(NC(=O)Nc2nnc(Cc3ccc([N+](=O)[O-])cc3)s2)cc1C
→ -2%, ?
- CCN(CC)c1ccc(NC(=O)CN2CCN(S(=O)(=O)c3cc(Cl)ccc3OC)CC2)cc1
→ -2%&-16%, ?
- COc1nccc(Nc2ccccc2)c1C#N
→ -3%, -28%

Single values from above:
`O=C(COC(=O)c1cc(=O)[nH]c2ccccc12)NC(=O)c1ccccc1` | TDP1 cell CPT = -2%
`Cc1ccc(C(=O)N/C(=C\c2ccccc2)C(=O)NCc2ccncc2)cc1` | GCN5L2 inh = -7%
`CCN(CC)c1ccc(NC(=O)CN2CCN(S(=O)(=O)c3cc(Cl)ccc3OC)CC2)cc1` | GCN5L2 inh = -2%&-16%
`COc1nccc(Nc2ccccc2)c1C#N` | GCN5L2 inh = -3%

Remaining list, next part
Screens in order: GCN5L2 inh, TDP1 cell CPT
- NC(=O)c1ccc(NC(=O)CCc2nc3sc4c(c3c(=O)[nH]2)CCCC4)cc1
→ 1%, 11%
- CC(=O)n1c(C=Nc2ccccc2)c(O)c2ccccc21
→ -8%, 0%
- Cc1ccc(NC(=O)CSc2[nH]c(=O)ncc2C)cc1
→ 0%, ?
- Cn1c(C(=O)NCCc2ccccc2)cc(=O)n(C)c1=O
→ -2%, -23%
- COc1ccc(NC(=O)C2CCCN(S(C)(=O)=O)C2)cc1 (stereo unspecified)
→ -2%, 17%
- Clc1ccc(-c2ccc(CNCc3ccccn3)o2)cc1
→ -1%, ?
- CCOC(=O)C1CCN(CC(=O)NC(=O)NC2CCCCC2)CC1
→ -3%, ?
- COC(=O)c1ccc(-c2noc(CN3C[C@H]4CC[C@H]3C4)n2)cc1
→ -19%, 1%
- O=C(N/N=C/c1cc(Br)cc(Br)c1O)c1cccc(N2CCCC2=O)c1
→ -6%, 5.2µM*
- O=C(NCc1cccc(F)c1)c1cccc2c1C(=O)c1ccc(N3CCCC3)cc1S2(=O)=O
→ -8%, ?
- CCOc1ccc(CN2CCN(C(=O)c3ccco3)CC2)cc1
→ -9%, ?
- Cn1c(N)c(C(=O)COC(=O)CNS(=O)(=O)c2ccc(Cl)c(Cl)c2)c(=O)n(C)c1=O
→ 0%, -26%
- Cc1ccc(CS(=O)(=O)Cc2ccc(C(=O)NCCCN3CC(C)CC(C)C3)o2)cc1 (stereo unspecified)
→ 3%, -11%
- CC(=O)c1ccc(N/C=C/C(=O)c2ccc(Br)cc2)cc1
→ -11%, -10%
- CCOc1cccc(CN2CCCC(C(=O)Nc3ccc(-c4ccn[nH]4)cc3)C2)c1O (stereo unspecified)
→ -16%, ?

Overlap with the part before: 2 compounds, followed by the next part.
Screens in order: GCN5L2 inh, TDP1 cell CPT
- CC(=O)c1ccc(N/C=C/C(=O)c2ccc(Br)cc2)cc1
→ -11%, -10%
- CCOc1cccc(CN2CCCC(C(=O)Nc3ccc(-c4ccn[nH]4)cc3)C2)c1O (stereo unspecified)
→ -16%, ?
- COC(=O)Cc1cc(OC)c(OC)cc1Cc1cc(OC)c(OC)cc1CC(=O)OC
→ -5%, -5%
- O=C(CN1CCN(S(=O)(=O)c2ccccc2F)CC1)Nc1ccccc1C(=O)c1ccccc1
→ -3%, ?
- Cc1onc(-c2c(Cl)cccc2Cl)c1C(=O)Nc1c(C)n(C)n(-c2ccccc2)c1=O
→ -2%, 7%
- CCN1CNC(=S)N(c2ccccc2OC)C1
→ 16%, 1%
- Cc1ccccc1OC1C(=O)N(CC2CCCO2)C1c1ccc2c(c1)OCO2 (stereo unspecified)
→ 1%, 15µM*
- Oc1cccc(-c2nc3c4c(ncn3n2)-c2ccccc2CC42CCCC2)c1
→ 0%, 18µM*
- Cn1c(N)c(C(=O)COC(=O)COc2cccc(Br)c2)c(=O)n(C)c1=O
→ -7%, 6%
- Cc1ccc(NC2=CC(=O)CC(c3ccco3)C2)c(N)c1 (stereo unspecified)
→ -15%, -14%
- COc1cc(Cl)c(NC(=O)CN(C)S(=O)(=O)c2ccc3[nH]c4c(c3c2)CCCC4)c(OC)c1
→ -12%, 23µM*
- COc1cc2c(cc1OC)C(/C(C#N)=N\O)=NC(C)(C)C2
→ -2%, 4%
- CS(=O)(=O)N(CC(=O)Nc1cccc(Br)c1)Cc1ccccc1
→ -12%, -15%
- Cc1nnc(SCC(=O)Nc2ccc(N3CCOCC3)cc2)n1-c1ccccc1
→ -7%, 7%
- CCC(C)NC(=O)CSc1ccc(S(=O)(=O)N2CCN(Cc3ccccc3)CC2)cn1 (stereo unspecified)
→ -1%, ?
- Cc1cc(C)c2ccc(/C=N/O)nc2c1O
→ -10%, -21%
- O=C(NCCCO)c1c(O)c2cccc3c2n(c1=O)CCC3
→ -4%, ?
- Cc1cc(C)n2nc(C(=O)OCC(=O)Nc3ccc4c(c3)OCCO4)nc2n1
→ -3%, 7%
- Nc1nonc1C(=O)NCCNC(=O)c1ccc(Cl)c(Cl)c1
→ -5%, -3%
- CS(=O)(=O)N(CC(=O)NCC1CCCO1)Cc1ccc(Cl)cc1 (stereo unspecified)
→ 5%, -11%
- CCOC(=O)C(=O)N1CCN(CC)CC1
→ 0%, -15%
- Cc1ccc(C(=O)OCC(=O)Nc2sc3c(c2C#N)CCCCC3)cc1NC(=O)c1ccco1
→ ?, -12%
- O=C1CN(C(=O)CSc2nc3c(cnn3-c3ccccc3)c(=O)[nH]2)c2ccccc2N1
→ -7%, ?
- CCOc1ccccc1-c1nc(C(N)=O)c2[nH]c(=O)n(-c3cccc(C)c3)c2n1
→ -4%, ?
- CC1CC1C(=O)OCC(=O)Nc1cccc(Br)c1 (stereo unspecified)
→ -3%, -4%
- Cc1cccn2c(=O)c3cc(C(=O)NC4CCCCC4)sc3nc12
→ 2%, -26%
- CCC(C)(C)NC(=O)CN(C(=O)CCC(=O)Nc1nccs1)c1ccccc1C
→ 7%, 9%
- COc1ccc(-c2nn(-c3ccccc3)cc2CO)cc1OC
→ -2%, ?
- O=C(CSc1nc2ccc(Cl)cc2[nH]1)c1cccs1
→ -3%, -25%
- Cc1ccc(NC(=S)NCCN2CCOCC2)cc1C
→ 1%, -2%
- COC(=O)COc1ccc(S(=O)(=O)Nc2ccc(NC(C)=O)cc2)cc1
→ 2%, -10%
- COC1CCCCC1NS(=O)(=O)c1ccccc1 (stereo unspecified)
→ -13%, -2%
- COc1ccc(C(C(=O)NC(C)(C)C)N(C(=O)CCC(=O)Nc2cc(C)on2)c2ccc3c(c2)OCCO3)cc1 (stereo unspecified)
→ 5%, -30%
- CC(C)=CC(=O)Nc1ccccc1C(N)=O
→ -13%, 0%
- COc1ccc(/C=C/C(=O)OCC(=O)N2CCCCCC2)c(OC)c1
→ -6%, ?
- COc1ccc(/C=C(/NC(=O)c2ccccc2)C(=O)NCCN2CCOCC2)cc1OC
→ -12%, 20%
- CCc1nc(N[C@@H](Cc2c[nH]c3ccccc23)C(=O)O)c2oc3ccccc3c2n1
→ -1%, 0%
- O=c1[nH]c2cc3c(cc2cc1CN(Cc1nnnn1CC1CCCO1)C1CCCCC1)OCO3 (stereo unspecified)
→ -2%, ?
- Cc1c(CCO)c(=O)n(C)n1C(=O)c1ccc(Cl)cc1
→ -6%, -29%
- CCOC(=O)C1CCN(C(=O)Cn2ncc3c4ccccc4n(Cc4ccccc4F)c3c2=O)CC1
→ -3%, 3.3µM*
- O=C(NCc1nnnn1-c1ccc(F)c(F)c1)c1cc2ccccc2o1
→ -4%, -7%
- CCOc1ccc(CCNC(=O)Cn2nc(C)c3c(C)n(-c4ccccc4)nc3c2=O)cc1
→ -19%, -4%
- CN(C(=O)CN1C(=O)NC2(CCCc3ccccc32)C1=O)C1CCCCC1 (stereo unspecified)
→ 1%, -15%
- Cc1ccc(CNC(=O)c2ccc3c(c2)NC(=O)C(N2CCOCC2)S3)cc1 (stereo unspecified)
→ -1%, ?
- CC(=O)Nc1ccc(NC(=O)CSc2nnc(-c3cccnc3)o2)cc1
→ 1%, 11%
- C=CCn1c(CNC(=O)CCC)nc2ccccc21
→ ., -22%
- COc1cccc(OCC(O)CN2CCc3ccccc3C2)c1 (stereo unspecified)
→ 2%, ?

Whole records, quoted from the list.
`O=C(CN1CCN(S(=O)(=O)c2ccccc2F)CC1)Nc1ccccc1C(=O)c1ccccc1` as listed: GCN5L2 inh: -3%; TDP1 cell CPT: ?
`COC(=O)Cc1cc(OC)c(OC)cc1Cc1cc(OC)c(OC)cc1CC(=O)OC` as listed: GCN5L2 inh: -5%; TDP1 cell CPT: -5%
`O=C1CN(C(=O)CSc2nc3c(cnn3-c3ccccc3)c(=O)[nH]2)c2ccccc2N1` as listed: GCN5L2 inh: -7%; TDP1 cell CPT: ?

The list continues:
Screens in order: GCN5L2 inh, TDP1 cell CPT
- O=C1CCCc2c1nc(-c1ccco1)n2O
→ -16%, -4%
- O=C(c1ccccc1-c1ccccc1)N1CCCCC1
→ -6%, -19%
- COCCn1c(-c2ccc(-c3ccccc3Cl)o2)nc2c1c(=O)[nH]c(=O)n2CC(C)C
→ -15%, -24%
- O=C(Cn1ccc2cc(S(=O)(=O)N3CCCC3)ccc21)NCCc1ccccc1
→ 1%, ?
- O=C(c1ccccc1)C1CCN(C(=O)c2cccs2)CC1
→ -3%, 5%
- CCCOc1ccc(Cn2c(O)cc(=O)[nH]c2=O)cc1
→ -6%, 21%
- Nc1nncn1C(=O)c1cc(Br)ccc1Cl
→ 0%, 1%
- CC(C)Oc1cccc(C(=O)C2CCCN(C(=O)c3ccccn3)C2)c1 (stereo unspecified)
→ -4%, 21µM*
- Cc1ccc(C2c3c(-c4ccccc4O)n[nH]c3C(=O)N2CCCO)cc1 (stereo unspecified)
→ -1%, 18µM*
- Cc1ccc(N(C(=O)c2csnn2)C(C(=O)NC2CCCCC2)c2ccco2)cc1 (stereo unspecified)
→ -6%, ?
- CCOc1ccccc1Oc1coc2cc(OC)ccc2c1=O
→ -10%, -11%
- CC(=O)N(CCN(C)C)c1nc2cc3c(cc2s1)OCCO3
→ -3%, 5%
- CCOc1ccc(N(CC(=O)Nc2ccc(C)c(F)c2)C2=NC3CS(=O)(=O)CC3S2)cc1 (stereo unspecified)
→ -1%, -19%
- Cc1ccc(NC(=O)CCC(=O)N/N=C/c2cccs2)cc1
→ -6%, -1%
